Bioassay records: PubChem, Center for Chemical Genomics, University of Michigan
HIV TAR-Tat – HIV-1 TAR-Tat binding disruption; hit rate 0.6% among 100,000; z-score (no concentration beside the values); HIV-1 TAR RNA, Tat peptide displacement FRET; stronger effect = higher value; AID 1259389;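 note: score is relative to mean and SD of negative controls; some compounds called inactive have numbers as strong as hits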
CDC25B CDK2 inh – human CDC25B-CDK2/CyclinA binding inhibition; P30305+P24941; HTRF CDC25B-CDK2/CyclinA binding, anti-His/anti-Flag; stronger effect = higher value; z-score (no concentration beside the values); hit rate 0.72% among 94,000; AID 1259370;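 note: score is relative to mean and SD of negative controls; strong numbers were not always called active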
* = called active by the depositor; / = not tested or not shown.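 Rule for the calls: active = z-score from 3 up in half or more of its runs; inactive = the rest.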

No.	SMILES	HIV TAR-Tat	CDC25B CDK2 inh
1	O=C1c2cccnc2C(=O)N1Cc1ccc(F)cc1S(=O)(=O)Nc1ccc(F)cc1F	1.11	/
2	COc1ccc(OCCCn2c(=O)oc3ccccc32)cc1	1.27	-2.16
3	CC(C)c1ccc(NS(=O)(=O)c2cc(-c3noc(C4CC4)n3)cs2)cc1	2.21	/
4	Cn1cnc(S(=O)(=O)NCC2CCN(Cc3cccc(Cl)c3)CC2)c1	1.11	/
5	Cn1c(Sc2cccs2)nc(C#N)c1C#N	/	-0.64
6	Cc1c(O)ccc(-c2[nH]ncc2Oc2ccccc2)c1O	/	-0.72
7	Cc1nc(N2CCN(c3cccc(Cl)c3)CC2)c2c(C)c(C)sc2n1	1.5	-0.53
8	Cc1cc(C)n2c(SCc3nnnn3-c3ccccc3)nnc2n1	/	-0.56
9	COc1ccc2[nH]c3c(OC)ncnc3c2c1	/	-1.6
10	Cn1cc([N+](=O)[O-])cc1C(=O)Nc1ccccc1F	1.71	/
11	Clc1ccc(C2C=C(c3ccccc3)Nc3nnnn32)cc1 (configuration not stated)	1.21	0.5
12	Cc1n[nH]c(C)c1S(=O)(=O)N1CCc2ccccc2C1	1.59	/
13	Cc1ccc(C)c(NC(=O)N2CCN(c3nc(C)cc(N4CCN(C)CC4)n3)CC2)c1	2.41	/
14	Oc1ccc(F)cc1-c1ccnc2cc(-c3ccccc3)nn12	0.7	-1.64
15	O=C(CN1/C(=C(/O)c2ccccc2)C(=O)c2ccccc2S1(=O)=O)c1ccc(Br)cc1	1.12	-0.84
16	CC(C)(C)C(=O)OCc1nc(-c2cc(-c3ccccc3)no2)cs1	/	-0.72
17	Cc1nnc2c(Nc3cccc(O)c3)nc3ccccc3n12	0.93	2
18	C=CCOc1cccc(C2c3c(oc4ccc(C)cc4c3=O)C(=O)N2CCCN(C)C)c1 (configuration not stated)	0.45	0.76
19	CC12CCC(=O)C=C1CCC2=O (configuration not stated)	/	-0.61
20	Cc1ccc(-c2nnc(SCCOc3ccccc3)o2)cc1	1.04	-0.37
21	Cc1cc2n(n1)C(c1cccc(O)c1)Nc1c(C)cccc1-2 (configuration not stated)	2.39	-2.45
22	CCOc1nc2cccnc2n(C(CC)C(=O)N2CCCC2)c1=O (configuration not stated)	2.01	/
23	Cc1cc(-c2nnc(C(F)(F)F)o2)ccc1NC(=O)c1cccs1	/	-1.36
24	C#CCSc1nc2c(c(=O)[nH]1)C(c1cccc(F)c1F)CC(=O)N2 (configuration not stated)	1.83	-1.63
25	Cc1nnsc1-c1onc(C)c1-c1nc(-c2ccc([N+](=O)[O-])o2)no1	/	1.01

Additional entries follow.
No.	SMILES	HIV TAR-Tat	CDC25B CDK2 inh
26	COC(=O)c1cc(NC(=O)C2CC3CCCN3C23C(=O)N(C)c2ccccc23)cc(C(=O)OC)c1 (configuration not stated)	-3.84	/
27	Cc1ccc(N2C(=O)C=CC2=O)cc1	/	-1.18
28	Nc1c(-c2nc(-c3ccccc3F)no2)nnn1-c1ccc(Cl)cc1	4.53	/
29	O=C(O)c1ccccc1C(=O)c1ccc(NC2CCCCC2)c([N+](=O)[O-])c1	/	-1.33
30	Cc1[nH]c(=O)[nH]c(=O)c1S(=O)(=O)N1CCN(C(c2ccccc2)c2ccccc2)CC1	-1.03	/
31	S=C1SCN(CC2CC2)CN1CC1CC1	/	-0.99
32	CCOC(=O)C1CCN(c2ccccc2CN2CCC(c3ccccc3OC)CC2)CC1	/	-1.17
33	COC(=O)CSc1nc(-c2ccccc2)cc(-c2ccc(OC)cc2)c1C#N	0.94	-2.21
34	CCCSc1ncc(Cl)c(C(=O)Nc2nc(C)c(C(=O)OCC(C)C)s2)n1	1.42	-0.76
35	COc1ccc(C2CC(=O)C3=C(C2)Nc2ncnn2C3c2ccc(OC)cc2)cc1 (configuration not stated)	0.23	0.31
36	Cc1noc(-c2ccc(-c3noc(-c4ccccc4Cl)n3)cc2)n1	0.84	/
37	CN(Cc1ccccc1)C(=O)Cn1c(=O)oc2cc(S(=O)(=O)NC3CCCC3)ccc21	/	-1.02
38	Cc1ccsc1CCNc1nc2ccccc2c2nc(-c3cccnc3)nn12	0.37	-0.87
39	CCCc1cc(=O)[nH]c(SC/C=C/c2ccccc2)n1	/	-2.01
40	CCCCN(CC)C(=O)Nc1cc(C(=O)OCC)c(C)nc1C	2.48	-0.08
41	CCOc1nc2c(c(=O)n(C)c(=O)n2C)n1C	/	-1.46
42	Cc1cc(=O)n2[nH]c(NC(=O)CC(C)C)nc2n1	-0.8	-1.19
43	Cc1nc(C)c(C)nc1C	0.77	/
44	Cc1ccnc(NC(c2cccc(F)c2)c2ccc3ccc(C)nc3c2O)c1 (configuration not stated)	1.5	-0.79
45	Cc1c(C(=O)Nc2cnc3ccccc3c2)sc2ncnc(N3CCC(C)CC3)c12	1.16	/
46	COc1ccc(N(C)C(=O)c2cc3c(s2)-c2ccc(Cl)cc2S(=O)(=O)C3)c(OC)c1	0.36	-14.2
47	CC1Sc2ccc(S(=O)(=O)Nc3ccc(C(C)C)cc3)cc2NC1=O (configuration not stated)	0.92	/
48	CCN(CC)c1ccc(Nc2c(-c3ccc4c(c3)OCC(=O)N4)c(=O)c2=O)c(C)c1	-5.37	/
49	O=C(CCCn1c(=O)[nH]c2ccccc2c1=O)N1CCN(c2ccccn2)CC1	/	-3.27
50	Cn1c(SCc2nc3ccccc3[nH]2)nc(=O)c2ccccc21	/	0.89

Additional entries.
No.	SMILES	HIV TAR-Tat	CDC25B CDK2 inh
51	COC(=O)C1=C(C)NC2=C(C(=O)c3ccccc32)C1c1cc(Cl)c(OCC(=O)O)c(OC)c1 (configuration not stated)	0.45	-1.95
52	CCOc1ccccc1C1C2=C(Nc3c1c(=O)[nH]c(=O)n3CCCOC)c1ccccc1C2=O (configuration not stated)	0.62	-0.28
53	Cc1ccc(C)n1-c1nnc(N2CCC(C(=O)NCc3ccco3)CC2)s1	0.1	0.13
54	O=C1c2oc3ccc(Cl)cc3c(=O)c2C(c2cccc(O)c2)N1Cc1ccccc1 (configuration not stated)	1.26	0.48
55	CCOC(=O)c1c(C)oc2nc(C)nc(Nc3ccc(OC)c(OC)c3)c12	1.28	/
56	C=CCN1C(=O)C(=O)c2ccccc21	2.3	-0.57
57	CCOC(=O)CC(NC(=O)c1cc2c(s1)-c1ccccc1OC2)c1cccs1 (configuration not stated)	/	-0.76
58	CCOC(=O)c1c(NC(=O)COCc2cc(-c3cccs3)on2)sc(C)c1C	1.88	/
59	COc1ccccc1N1CCN(C(=O)C(CCS(C)(=O)=O)N2Cc3ccccc3C2=O)CC1 (configuration not stated)	0.16	/
60	O=C(O)c1cc(-c2ccc(O)cc2)nc2n[nH]c(-c3ccc(Br)cc3)c12	2.96	/
61	COc1ccc(/C(O)=C2/C(=O)C(=O)N(CCN3CCOCC3)C23C(=O)N(C)c2ccccc23)cc1 (configuration not stated)	1.39	0.1
62	CC(C)NS(=O)(=O)c1ccc2c(c1)N(CC(=O)NC1CCCC1)C(=O)CO2	1.86	/
63	c1ccc(CNc2nc3ccccc3c3nncn23)cc1	0.91	/
64	CC(C)(C)C1CCC(C(=O)Nc2ccc3nc4n(c(=O)c3c2)CCCCC4)CC1 (configuration not stated)	-1.86	-0.87
65	Cc1ccc(CNc2ncc(-c3ccccc3)n2C)o1	-0.53	-1.2
66	Cn1c(-c2ccc(C#N)cc2)nc(=O)c2cc(Cl)ccc21	/	-0.6
67	Cc1ccc2oc(C(=O)N(Cc3ccc(C)o3)C3CCS(=O)(=O)C3)c(C)c2c1 (configuration not stated)	1.85	-0.68
68	CCOC(=O)c1c(NC(=O)C(C)Oc2ccc(OC)cc2)sc(C)c1C (configuration not stated)	-0.25	0.79
69	NC(=Nc1ccccc1)NC(=O)c1nc(Cl)c(N)nc1N	/	-0.56
70	NC(=O)c1nc(-c2ccccc2O)nc2c1[nH]c(=O)n2CC1CCCO1 (configuration not stated)	1.11	/
71	Cc1ccc(CN2CCC(CNC(=O)c3cc(-c4cccnc4)nc4ccc(C)cc34)C2)cc1 (configuration not stated)	0.96	/
72	Cc1ccc(Cl)cc1-n1nnc(-c2nc(-c3ccc4c(c3)OCO4)no2)c1C	1.13	/
73	Cc1cccn2cc(-c3cccc(S(=O)(=O)N4CCOCC4)c3)nc12	0.13	-1.55
74	CCN(CC)CCCN(C)C(=O)c1nn(C)c2c1COc1ccccc1-2	-0.01	-1.52
75	O=C(NCCN1CCCc2ccccc21)C1CCCN1c1nnc(N2CCCC2=O)s1 (configuration not stated)	0.67	/

In the list so far, 7 contain fluorine:
No.	SMILES	HIV TAR-Tat	CDC25B CDK2 inh
1	O=C1c2cccnc2C(=O)N1Cc1ccc(F)cc1S(=O)(=O)Nc1ccc(F)cc1F	1.11	/
10	Cn1cc([N+](=O)[O-])cc1C(=O)Nc1ccccc1F	1.71	/
14	Oc1ccc(F)cc1-c1ccnc2cc(-c3ccccc3)nn12	0.7	-1.64
23	Cc1cc(-c2nnc(C(F)(F)F)o2)ccc1NC(=O)c1cccs1	/	-1.36
24	C#CCSc1nc2c(c(=O)[nH]1)C(c1cccc(F)c1F)CC(=O)N2 (configuration not stated)	1.83	-1.63
28	Nc1c(-c2nc(-c3ccccc3F)no2)nnn1-c1ccc(Cl)cc1	4.53	/
44	Cc1ccnc(NC(c2cccc(F)c2)c2ccc3ccc(C)nc3c2O)c1 (configuration not stated)	1.5	-0.79

(listing goes on)
No.	SMILES	HIV TAR-Tat	CDC25B CDK2 inh
76	CCCCOc1cccc(C2c3c(oc4ccccc4c3=O)C(=O)N2c2nncs2)c1 (configuration not stated)	1.05	-0.48
77	COc1cc(NC2c3ccccc3C(=O)N2c2ccc(Cl)cn2)cc(OC)c1 (configuration not stated)	0.77	1.11
78	CCCCNC(=O)Cn1cnc2onc(C(=O)OCC)c2c1=O	1.21	/
79	CCc1nc(-c2csc(S(=O)(=O)N3CCC(C(=O)N4CCCC4)CC3)c2)no1	1.3	/
80	COC(=O)C1=C(C)NC(=S)NC1c1ccc(OCc2ccccc2)cc1 (configuration not stated)	/	-2.34
81	Cc1cc(C)c(S(=O)(=O)NCCN2CCN(S(=O)(=O)c3cc(C)c(C)cc3C)CC2)cc1C	-0.55	-0.32
82	CCN(c1cccc(C)c1)S(=O)(=O)c1cc(-c2onc(C)c2C)ccc1C	0.02	/
83	O=C(Cn1ncc2ccc(Cl)cc21)NC1CCCC1	1.14	-0.3
84	Cc1c(CCNS(=O)(=O)c2cc(F)ccc2F)sc2nc(-c3ccc(F)cc3)nn12	2.11	/
85	COC(=O)c1sccc1NC(=O)C1CCCN(c2ncnc3onc(C)c23)C1 (configuration not stated)	1.68	/
86	COCCCNS(=O)(=O)c1csc(C(N)=O)c1	2.34	/
87	COC(=O)c1sccc1NC(=O)NC(=O)c1c(Cl)cccc1Cl	/	-1.63
88	Cc1nc(CSCc2ccc(Cl)cc2Cl)cs1	/	0.54
89	COc1cc(OC)cc(C(=O)Oc2cc(N)n(S(=O)(=O)c3ccccc3)n2)c1	1.92	0.99
90	CC1CCC(NC(=O)c2cnn3c4c(cnc23)CCCCCC4)CC1 (configuration not stated)	0.27	/
91	Cc1ccc(-c2noc3ncnc(N4CCN(c5ccccn5)CC4)c23)cc1	1.84	/
92	COC(=O)c1c(C(=O)OC)c2n(c1C)CCC2	/	-0.25
93	O=C(NCCCO)C(=O)Nc1c2c(nn1-c1ccccc1)CSC2	1.36	/
94	O=C(CCSc1ccc(Cl)cc1)Nc1nc(-c2ccccn2)cs1	1.26	/
95	O=C(O)C1CCN(c2nc3ncccc3nc2-c2ccccc2)CC1	-0.38	4.18
96	CCC(=O)OCc1cc(=O)n2nc(-c3cccs3)sc2n1	19*	/
97	Cn1c(=O)c2c(c3ccccc31)OC(=O)CC2c1cccc(F)c1 (configuration not stated)	-0.03	-2.06
98	CCOC(=O)C(=O)CC(=O)c1ccc2c(c1)OCCO2	0.61	0.5
99	CC(C(=O)Nc1ccc(F)cc1)n1sc2ccccc2c1=O (configuration not stated)	2.36	-1.21
100	N/C(CS(=O)(=O)Cc1ccco1)=N\O	/	-0.48

(listing goes on)
No.	SMILES	HIV TAR-Tat	CDC25B CDK2 inh
101	Cc1cccc(C)c1-n1[nH]nnc1=S	/	0.08
102	CCN(CC)c1cc2c(cc1F)c(=O)c(S(=O)(=O)c1ccc(C)cc1)cn2C	0.07	/
103	O=C(c1ccc(CS(=O)c2ccc(Cl)cc2)o1)N1CCN(Cc2ccc3c(c2)OCO3)CC1 (configuration not stated)	0.8	/
104	CC(C)(C)NS(=O)(=O)c1ccc2c(c1)NC(=O)CS2	2.29	/
105	Cc1sc2ncn(CC(=O)Nc3ccc(F)cc3F)c(=O)c2c1C	1.86	0.71
106	CC(=O)Oc1ccc(C)cc1N1C(=O)c2ccc(C(=O)O)cc2C1=O	/	-0.11
107	CCOC(=O)c1sc(NC(=O)c2noc3c2CCCC3)c(C(=O)OCC)c1C	-0.34	-0.47
108	COc1cc(CN2CCC(N3CCN(C)CC3)CC2)cc(OC)c1OC	/	0.38
109	CCOC(=O)Cc1csc(NC(=O)c2ccc(-c3nc4ccccc4s3)s2)n1	-4.81	/
110	Cn1c(=O)c2c(-c3ccc(Br)cc3)n(-c3ccc(F)cc3)cc2n(C)c1=O	1.63	1.94
111	CC1(C)CC(=O)C2=C(C1)OC(N)=C(C#N)C2c1coc2ccccc2c1=O (configuration not stated)	/	1.79
112	CC1=C(c2ccc(F)cc2)S(=O)(=O)NC1=NCCCOC(C)C	-0.88	/
113	COc1ccc(/C=C2\C(=O)N(c3ccc4ccccc4c3)N=C2C)cc1OC	/	-0.23
114	Cn1c(SCC(=O)Nc2ccc3[nH]c(=O)[nH]c3c2)nnc1-c1ccccc1	0.78	-0.17
